High-throughput results: PubChem BioAssay, Broad Institute
T cruzi repl: T. cruzi replication inhibition; T. cruzi beta-gal in NIH3T3, luminescence, 90 h; inhibition, % (test concentration not listed); actives 1.4% (n = 300,000); AID 1885;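 active = mean inhibition across valid replicates above about 55%, limit read from the data; inconclusive = mean below that limit but half or more replicates reach it; inactive = mean below it, under half of replicates reach it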;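 also: signal also drops with host cell toxicity which is not excluded here; 0% = plate median of DMSO wells and 100% = zero luminescence signal; higher percent means less beta-gal luminescence so fewer parasites; stock transfer was 50 nL into about 50 µL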
FGF22 binding: binders of recombinant human FGF22 by thermal shift. calls only at 9.99 µM. actives 1.5% (n = 340,000). SYPRO orange fluorescence; percent of sucrose octasulfate shift, DMSO zero. Q9HCT0;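 active = melting point raised past a set limit in the mean and every replicate; inconclusive = no clear call; three in four hits are not shown here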
Target sequence (Q9HCT0 whole entry, looked up): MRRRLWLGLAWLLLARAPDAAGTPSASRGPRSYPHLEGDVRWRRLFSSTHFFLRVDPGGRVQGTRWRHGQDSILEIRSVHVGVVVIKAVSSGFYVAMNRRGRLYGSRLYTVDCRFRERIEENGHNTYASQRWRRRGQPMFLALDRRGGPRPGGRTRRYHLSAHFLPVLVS
Calb FLC: affects C. albicans growth with fluconazole; C. albicans CaCi-2 (fluconazole-resistant clinical isolate) + fluconazole, Alamar Blue growth, 48 h; growth inhibition, % (no concentration beside the values); actives 0.57% (n = 300,000);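 active = most replicates above 75%; inconclusive = exactly half above 75%; inactive = most below 75%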;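 also: all wells also contain fluconazole at 8 µg/ml as a sub-toxic cotreatment; 0% = median of DMSO wells and 100% = median of geldanamycin control wells; wells of about 8 µL received 7.5 nL stock; the first replicate is given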
ALR H2O2 inh: blocks human ALR sulfhydryl oxidase activity. P55789. purified ALR, DTT oxidation, H2O2 HRP-luminol luminescence. inhibition, % (concentration not given with the values). actives 3.8% (n = 290,000). AID 485317;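 active = mean and each replicate at 75% or more; inconclusive = only one of the two met; inactive = neither met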;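 also: stock transfer was 7.5 nL into about 7.5 µL; 0% = neutral wells and 100% = wells with inactivated enzyme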
Target sequence (P55789 whole entry, looked up): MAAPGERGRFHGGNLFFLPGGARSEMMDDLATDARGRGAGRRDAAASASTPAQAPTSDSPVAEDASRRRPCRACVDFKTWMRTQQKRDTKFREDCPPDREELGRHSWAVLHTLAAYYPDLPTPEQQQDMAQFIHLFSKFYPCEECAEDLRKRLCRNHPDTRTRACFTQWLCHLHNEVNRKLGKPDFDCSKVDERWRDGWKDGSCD
MLL AF4-AF9 inh: MLL-AF4/AF9 protein interaction inhibition; inhibition, % at 10 µM; actives 0.47% (n = 350,000); AlphaScreen, biotin-AF4 peptide binding to FLAG-AF9; P42568; AID 651704;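 active = every replicate reaching a set inhibition limit, whatever the replicate mean, cut at about 25% in these data; inconclusive = mean inhibition reaches that limit but some replicates miss it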;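 also: 0% = plate neutral control median and 100% = total signal loss; the record names both 10 and 1 µM as test concentration; the first replicate is given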
Target sequence (P42568 whole entry, looked up): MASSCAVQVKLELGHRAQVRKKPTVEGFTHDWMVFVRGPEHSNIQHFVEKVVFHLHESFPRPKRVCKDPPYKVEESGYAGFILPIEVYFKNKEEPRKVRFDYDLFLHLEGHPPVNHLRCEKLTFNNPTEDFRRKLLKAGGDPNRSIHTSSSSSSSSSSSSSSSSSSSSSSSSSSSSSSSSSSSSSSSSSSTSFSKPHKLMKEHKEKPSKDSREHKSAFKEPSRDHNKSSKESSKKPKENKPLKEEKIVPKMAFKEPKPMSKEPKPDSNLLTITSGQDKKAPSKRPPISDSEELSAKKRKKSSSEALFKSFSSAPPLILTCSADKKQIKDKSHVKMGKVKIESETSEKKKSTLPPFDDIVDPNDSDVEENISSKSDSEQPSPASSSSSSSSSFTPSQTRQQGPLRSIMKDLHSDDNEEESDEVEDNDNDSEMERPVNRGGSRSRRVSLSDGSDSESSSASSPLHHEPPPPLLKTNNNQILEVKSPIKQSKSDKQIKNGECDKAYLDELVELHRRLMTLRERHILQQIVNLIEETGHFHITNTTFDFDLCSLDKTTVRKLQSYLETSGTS
Beta apoptosis: blocks beta cell apoptosis; actives 0.8% (n = 300,000); INS-1E cytokine-induced death, ATP luminescence, 48 h; percent of positive-control rescue, neutral wells zero; protection from apoptosis, % (test concentration not listed); AID 435005;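 active = all replicates at 75% or more, or half of them and the mean; inconclusive = half reach 75% but not the mean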;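 also: 0% = cytokine-treated negative control wells and 100% = positive control rescue; higher means more ATP so stronger rescue from cytokine killing; wells of about 40 µL received 100 nL stock; the first replicate is given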
RanGTP-Imp inh: disruptors of Ran-importin-beta complex formation – biochemical, FRET, CFP-Ran, YFP-importin-beta, homogeneous, primary screen. inhibition, % (no concentration beside the values). cell-free CFP-Ran/YFP-importin-beta FRET ratio. actives 1.1% (n = 300,000);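 active = most replicates above 15%; inconclusive = exactly half above 15%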;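 also: 0% = DMSO wells and 100% = Ran loaded with GDP instead of GTP; wells of about 40 µL received 100 nL stock; the first replicate is given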
rRNA inh HTS: inhibits bacterial ribosomal RNA function over humanized ribosomes; E. coli WT GFP vs humanized-ribosome RFP mutants, fluorescence, 24 h; stronger effect = lower value; DMSO median 0, no signal -100; GFP signal change (wild-type ribosome), % (concentration not given with the values); actives 1.6% (n = 350,000); AID 720706;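 active = significant combined selectivity score with lowered wild-type GFP, culture density cut under 30%, mutant RFP and density less affected; inactive = any of these conditions unmet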; also: one replicate is shown; some compounds called inactive have numbers as strong as hits
rRNA inh HTS OD600: recorded beside rRNA inh HTS, whose call it bears; OD600 change, %; measured here: OD600 growth;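 optical density of the mix in the first replicate; 0 = DMSO median and -100 = no signal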
rRNA inh HTS RFP: also measured in rRNA inh HTS; calls as there; RFP signal change, %; measured here: RFP humanized mutant strains;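 first replicate; 0 = DMSO median and -100 = no signal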
The depositor's hits bear a star; i = inactive; ? = inconclusive; / = not tested or not shown; & = joins results of further samples.

mol,FGF22 binding,T cruzi repl,Calb FLC,Beta apoptosis,rRNA inh HTS RFP,ALR H2O2 inh,MLL AF4-AF9 inh,rRNA inh HTS,rRNA inh HTS OD600,RanGTP-Imp inh
CCN(CC)CC#CCC(O)(c1ccccc1)C1CCCC1 (stereo not given),i,59*,-21,1,-5.5,-8,-0.9,4,1,2.4
Cc1nnc2ccc(-c3ccc(NC(=O)c4ccc(Cl)nc4)cc3)nn12,/,5,-4,0,/,2,/,/,/,-1.5
CCn1cc(CN2CCc3c([nH]c4ccccc34)C2c2cccc(O)c2)c(C)n1 (stereo not given),i,-4,28,-11,-0.3,-10,-1.2,-4,-2,1.3
CCCCCCn1c(-c2cccs2)n[nH]c1=S,i,0,1,6,-23,34,-3.6,-56,-76,-1.0
COc1cccc(NC(=O)CN(C)C(=O)c2cc(C3CC3)nn2-c2ccccc2)c1,i,/,/,-4,-7.0,1,-1.1,-30,-28,/
COc1ccc(CC(=O)OC(C)C(=O)Nc2ccc(S(N)(=O)=O)cc2)cc1 (stereo not given),i,-6,4,0,-0.1,-3,-1.7,8,17,0.7
Cc1ccc(NC(=S)Nc2ccc(C(C)C)cc2)cc1S(=O)(=O)N1CCCCCC1,i,0,-2,27,5.6,0,-2.0,1,-5,1.0
Cc1cc(C)n(-c2ccc(Cl)c(C(=O)OCC(=O)N3CCCCC3C)n2)n1 (stereo not given),/,-1,-3,7,/,-3,/,/,/,?
CCCCN1CN(Cc2ccccc2)CNC1=S,i,-48,-11,-13,-3.6,49,-0.6,7,-3,-3.2
N#CCC(=O)N/N=C\c1ccccc1OC/C=C/c1ccccc1,i,-7,1,7,1.6,-1,-0.6,7,5,-3.6
O=C(N/N=C1/SCC(=O)N1Cc1ccco1)c1ccccc1F,i,-10,-3,-4,3.7,-7,-0.9,12,10,-0.3
Cc1ccc(-n2ncc3c(N4CCCC(C)C4)ncnc32)c(C)c1 (stereo not given),i,9,-3,17,-8.1,0,-6.8,-22,-45,-2.0
COc1cccc(N(CC(=O)NC2CCCCC2)C(=O)c2snc(C(N)=O)c2N)c1,i,27,1,6,3.5,2,-3.3,-9,-8,-4.5
O=C(O)C1CCN(S(=O)(=O)c2ccc3c(c2)OCCCO3)CC1,i,-7,6,/,4.5,-23,-31,15,6,2.4
COc1ccc(-c2cc(C(F)(F)F)c(C#N)c(SCC(=O)Nc3nc(C)co3)n2)cc1,i,-10,-22,6,-2.2,-2,-9.3,5,-1,1.3
CN(C)C(=S)NC(=O)C12CC3CC(C)(CC(C)(C3)C1)C2,i,-9,11,-9,2.4,17,0.3,6,-6,1.4
C/C=C/COC(=O)C1=C(C)NC(=O)NC1c1ccc2c(c1)OCO2 (stereo not given),i,-14,4,-1,9.2,0,-2.1,1,2,0.8
O=C(CCS(=O)(=O)c1ccc(Cl)cc1)Oc1ccc2c(c1)OCO2,/,0,-2,-4,/,-18,/,/,/,1.6
Cc1ccc(NC(=O)COc2coc(CN3CCc4ccccc4C3)cc2=O)c(C)c1,i,4,9,/,-3.1,16,-26,-4,5,-0.9
COc1ccc(OC)c(NC(=O)COc2ccc(Br)cc2)c1,i,7,-14,0,1.0,/,1.1,11,14,1.1
Nc1c(C(=O)C2CC2)sc2nc3c(cc12)CCC3,i,-3,-5,-5,-4.7,-6,-6.5,-5,-9,5.7
COCCC(=O)N1CCC(Oc2ccc(C(=O)N3C[C@H]4CC[C@H]3C4)cc2)CC1,i,-3,1,2,3.9,-2,-0.6,3,11,0.2
O=C(Cc1c(F)cccc1Cl)Nc1cc(S(=O)(=O)N2CCOCC2)ccc1N1CCCC1,i,/,/,-1,-2.5,-2,2.7,8,9,/
COCCNC(=O)c1cc2cc3ccc(OC)cc3nc2o1,i,-3,10,2,-16,0,-2.0,-30,-14,4.4
COc1cccc(NC(=O)CN(C)C(=O)c2cn(-c3ccccc3)nc2-c2cccnc2)c1,i,/,/,0,5.9,1,2.1,-6,1,/

Next part, starting with the last 2 of the part before.
mol,FGF22 binding,T cruzi repl,Calb FLC,Beta apoptosis,rRNA inh HTS RFP,ALR H2O2 inh,MLL AF4-AF9 inh,rRNA inh HTS,rRNA inh HTS OD600,RanGTP-Imp inh
COCCNC(=O)c1cc2cc3ccc(OC)cc3nc2o1,i,-3,10,2,-16,0,-2.0,-30,-14,4.4
COc1cccc(NC(=O)CN(C)C(=O)c2cn(-c3ccccc3)nc2-c2cccnc2)c1,i,/,/,0,5.9,1,2.1,-6,1,/
CC(c1ccccc1F)n1cc(C(=O)NCCCc2nc3ccccc3[nH]2)nn1 (stereo not given),i,0,21,1,/,-13,-0.9,/,/,2.0
COn1c2c(c3c4no[n+]([O-])c4ccc31)CCCC2,/,-2,-1,3,/,6,/,/,/,-0.8
CCCCC1(C)OC(=O)C(=Cc2ccc(SC)cc2)C(=O)O1 (stereo not given),i,-8,-13,-7,5.1,6,0.5,17,11,?
COc1ccc(C(=O)O/N=C/c2c(C(F)(F)F)nn(C)c2SCc2ccccc2Cl)cc1,/,-27,-19,-12,/,-4,/,/,/,5.1
O=C(Nc1ccc(F)cc1F)C1CCN(c2ncnc3c2sc2cccc(F)c23)CC1,i,-21,17,1,5.0,-2,-8.9,-6,0,-1.6
C[C@@H]1OC(Nc2ccc(N=Nc3ccccc3)cc2)[C@H](O)[C@H](O)[C@H]1O (stereo not given in full),i,-2,-2,-3,-2.4,-8,12,5,4,-3.6
O=C1/C(=C/c2cccnc2)SC(=NCc2ccccc2)N1Cc1ccccc1,/,63*,-8,-5,20,-1,2.5,-22,6,-1.6
c1csc(-c2nc(N3CCCCC3)no2)c1,i,-11,-7,-3,-1.9,4,-1.2,10,15,2.3
Cc1ccc(NC(=O)COC(=O)C2(c3ccc(Cl)cc3)CCCC2)cc1,i,25,-4,-10,/,1,-1.0,/,/,-3.8
Cc1cc(C(C)(C)C)ccc1NC(=O)CC(C)(C)CC(=O)O,i,1,-9,-11,2.9,-34,26*,9,3,6.6
O=C(Nc1ccc2c(c1)CCCN2C(=O)c1ccccc1)c1ccccc1Br,i,4,2,15,-7.3,3,2.0,-19,-22,-0.8
CCOC(=O)c1cnn(CCOC(=O)Cc2cccs2)c1NC(=O)Cc1cccs1,/,-7,-31,-4,/,-4,/,/,/,5.7
CC1(C)CC(=O)C2=C(C1)N(CC1CCCO1)C(=O)NC2(C(F)(F)F)C(F)(F)F (stereo not given),i,0,16,-2,-2.8,-5,7.9,8,7,0.9
CC(O)[C@H]1CNCCN1CCc1cccc(F)c1 (stereo not given in full),i,-17,-4,1,-1.4,-1,-0.6,6,10,2.3
CC(C)[C@H](NC(=O)c1ccccc1)C(=O)OCC(=O)Nc1sccc1C(N)=O,i,/,/,0,4.2,52,2.1,-8,-10,/
CCCc1cc(=O)oc2cc(OCC(=O)N3CCN(C(=O)C4COc5ccccc5O4)CC3)ccc12 (stereo not given),i,12,4,/,1.6,1,-13,-9,-8,-2.6
Cc1ccccc1C(=O)N1CCN(S(=O)(=O)c2ccccc2)CC1,i,-6,1,1,-0.7,-8,-1.0,7,-1,-2.5
CCOc1ccccc1NC(=O)Cc1cccs1,i,2,4,-5,1.6,-15,3.4,3,3,-0.8
Cc1ccsc1CN(C(=O)c1ccc([N+](=O)[O-])cc1)C1CCS(=O)(=O)C1 (stereo not given),i,-14,1,6,-2.1,-21,-1.2,-7,15,?
O=C(NCCc1ccccc1F)C1CCCN1S(=O)(=O)c1ccccc1 (stereo not given),i,-3,2,-6,0.6,1,-2.6,4,1,-1.8
Cc1sc2nc(C3CC3)nc(N3CCN(C(=O)c4ccccc4F)CC3)c2c1C,i,29,-3,7,-4.2,-5,7.1,-37,-55,3.1
S=C(NCCCN1CCOCC1)N1CCOCC1,i,-18,5,-3,/,-1,3.4,/,/,-2.8
COc1ccc(S(=O)(=O)N2CCCCCC2)cc1C(=O)NCCOc1ccc(C)cc1,i,31,-2,3,1.7,/,12,-7,-2,-0.3
Cc1ccccc1NC(=O)CSc1nnc(CNC(=O)c2ccc3c(c2)OCO3)n1C,i,-8,1,-5,0.6,15,-0.4,5,11,5.3
CN1C(=O)NC(c2cccc(F)c2)C2=C1CC(C)(C)CC2=O (stereo not given),i,-3,-1,-5,-2.4,-18,-5.1,2,3,?
CC(C)CC(=O)Nc1nnc(SCC(=O)Nc2nccs2)s1,i,-2,2,6,-2.6,0,-1.9,8,-1,4.3
CCCNC(=O)c1cccc(COCC(F)(F)C(F)F)c1,i,-6,-10,-2,-4.5,-3,-1.8,6,9,2.1
CC1Oc2ccccc2N(CC(=O)N2CCCc3ccccc32)C1=O (stereo not given),i,5,4,0,-4.6,8,5.9,-10,-9,1.0
CS(=O)(=O)NCCCNc1ccc(Cl)cc1[N+](=O)[O-],/,-12,-13,-8,/,-2,/,/,/,-1.8
CN(C)n1cccc1/C=C(\C#N)S(=O)(=O)c1ccc(Cl)cc1,i,-3,-6,4,1.8,6,2.7,-6,-6,7.6
CCc1nnc(NC(=O)CSc2nnc(-c3ccc(OC)cc3)n2C)s1,/,7,-8,-5,/,0,/,/,/,-5.0
CCN(c1ccccc1)S(=O)(=O)c1ccc(C(=O)NNC(=O)c2ccccc2F)cc1,i,/,/,1,-1.6,5,-2.2,-23,-20,/
COc1ccc(NC2CC(=O)N(C(C)C)C2=O)cc1 (stereo not given),i,-9,-3,1,2.9,9,9.8,14,6,2.3
COc1ccc2c(CC(=O)Nc3ccc(N4CCOCC4)cc3)coc2c1,i,-6,12,-1,-1.3,-13,3.2,7,12,1.5
Cc1ccc(S(=O)(=O)N2Cc3ccccc3CC2C(=O)Nc2ccc3c(c2)OCO3)cc1 (stereo not given),/,15,-38,-4,/,1,/,/,/,-1.3
CC1=C(C(=O)OCc2ccccc2)C(c2cccc(Cl)c2Cl)NC(=O)N1CCCCCC(=O)O (stereo not given),i,19,8,0,-18,/,-1.9,-47,-74,-1.1
CC(=O)Nc1ccc(OS(=O)(=O)c2c(C)cc(C)cc2C)cc1,i,45,6,0,-3.3,33,-1.3,-28,-30,9.5
C[C@H](CO)N1C[C@H](C)[C@@H](CN(C)S(=O)(=O)c2cccs2)Oc2c(NC(=O)C3CC3)cccc2C1=O,i,/,/,-3,-0.3&1.5,2,-3.1&0.4,1&-2,-4&2,/
CCOC(=O)c1c(C)nc(C)c(C(=O)OCC)c1-c1cccc(N)c1,i,-6,9,-1,2.1,-25,-0.4,11,9,2.1
Cc1occc1C(=O)Nc1ccc(OCc2ccccc2)cc1,i,-10,0,18,-1.0,-11,1.2,1,1,0.8

Not all compounds are listed, so the mix of outcomes need not match the whole.
